# GALR2 ag – activates the human galanin receptor 2. O43603. GALR2-expressing cells, agonist activation read-out. activation, %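 (tested at 5 µM)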. actives 0.48% (n = 140,000). AID 803;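 active = above mean plus 3 SD of all compounds, about 5% in these data, not always enough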;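 also: 0% = vehicle buffer wells and 100% = reference agonist at full effect; tested in CHO reporter cells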
# Target sequence (O43603 whole entry, looked up): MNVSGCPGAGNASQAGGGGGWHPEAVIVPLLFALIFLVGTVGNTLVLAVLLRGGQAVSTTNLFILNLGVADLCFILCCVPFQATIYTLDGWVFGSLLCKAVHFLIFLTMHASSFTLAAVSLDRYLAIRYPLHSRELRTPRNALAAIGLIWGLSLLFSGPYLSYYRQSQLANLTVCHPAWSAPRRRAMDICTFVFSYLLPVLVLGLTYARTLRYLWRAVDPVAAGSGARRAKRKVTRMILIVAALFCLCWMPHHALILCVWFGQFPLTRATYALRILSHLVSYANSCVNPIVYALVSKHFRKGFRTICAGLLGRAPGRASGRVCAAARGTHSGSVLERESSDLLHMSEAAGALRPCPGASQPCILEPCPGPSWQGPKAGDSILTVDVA
# Insulin prom inh – TRM-6 insulin promoter activity inhibition. actives 0.9% (n = 130,000). inhibition, % at 2 µM. AID 1273. TRM-6 cells (human fetal islet line), insulin promoter-eGFP reporter, imaging; reporter expression induced with tamoxifen;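 active = inhibition above the mean plus 3 SD, with well images judged a real hit on visual review, cut at about 60% in these data, passing the limit was not always enough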
# RGS16-Gao – RGS16-Galphao interaction regulator (human) | O15492+P09471 | bead-based flow cytometry RGS16-Galphao binding, fluorescence; actives lie on both sides | binding response (% of control), % at 10 µM | actives 0.38% (n = 220,000) | AID 1441;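 active = below 25% or above 175%, edge rows of some plates excepted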;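 also: Galphao activated by GDP with aluminum fluoride before binding; 100% = wells without compound and 0% = beads without RGS; some results beyond the cut were filed as inactive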
# Target sequence (O15492 whole entry, looked up): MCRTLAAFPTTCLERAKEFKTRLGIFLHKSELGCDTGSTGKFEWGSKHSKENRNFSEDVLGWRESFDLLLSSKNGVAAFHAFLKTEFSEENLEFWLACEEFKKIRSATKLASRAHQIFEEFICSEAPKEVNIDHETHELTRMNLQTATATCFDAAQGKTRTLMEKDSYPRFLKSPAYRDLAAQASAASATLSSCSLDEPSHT
# Target sequence (P09471 whole entry, looked up): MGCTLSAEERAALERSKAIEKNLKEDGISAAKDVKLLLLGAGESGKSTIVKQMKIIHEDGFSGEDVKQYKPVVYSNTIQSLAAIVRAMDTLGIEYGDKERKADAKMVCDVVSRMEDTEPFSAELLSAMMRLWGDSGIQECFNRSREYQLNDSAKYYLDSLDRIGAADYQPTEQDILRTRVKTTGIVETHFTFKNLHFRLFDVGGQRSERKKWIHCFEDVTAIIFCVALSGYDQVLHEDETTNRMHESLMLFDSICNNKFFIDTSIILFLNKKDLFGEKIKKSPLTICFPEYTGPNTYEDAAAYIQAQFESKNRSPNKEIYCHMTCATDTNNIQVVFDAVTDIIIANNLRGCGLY
# HSV augment – increases HSV replication in cells. HSV replication augmentation in cells, fold increase. maximum fold increase. actives 0.005% (n = 220,000);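 active = peak rise of 1.5-fold or more in the series; tested in PC3 cells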;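 also: first round at 10 µM; read as green reporter fluorescence; hits show the peak of a series up to 25 µM; 1 = signal of infected wells without compound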
# PKD1 inh – inhibitors of human PKD1 kinase; PKD1 kinase fluorescence polarization assay; actives 0.056% (n = 200,000); inhibition, %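 (about 10 µM by stock and volumes)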; AID 797; Q15139;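 active = inhibition of 50% or more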;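 also: controls were vehicle for no effect and a reference inhibitor for full effect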
# Insulin prom inh cell count – second read-out of Insulin prom inh, no call of its own (marks repeat the call); normalized cell count, %; measured here: cell count, toxicity; reference of the scale not given here;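 cells exposed to compound for 48 h; stained nuclei by imaging scaled within each plate; lower means fewer cells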
# HSV augment primary fold – also measured in HSV augment; calls as there; fold increase; compound at 10 µM; measured here: primary screen fold increase 10 uM; tested in PC3 cells;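 GFP signal in the first replicate; 1 = infected wells without compound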
# * hit, by the source's call; i = inactive; . = no result given.
Molecule	GALR2 ag	Insulin prom inh	Insulin prom inh cell count	RGS16-Gao	HSV augment	HSV augment primary fold	PKD1 inh
N#Cc1ccc(CSc2nnc(-c3cccnc3)n2-c2ccccc2)cc1	-0.9	.	.	103	i	1	-1
Cc1cc(C)nc(Sc2nc(Nc3ccccc3)nc(Sc3nc(C)cc(C)n3)n2)n1	-0.4	.	.	102	i	0.85	-1
CCN(CC)S(=O)(=O)c1ccc(NS(=O)(=O)c2cccs2)cc1	.	31	110	100	.	.	-3
COc1ccc2c(c1)C(C)=CC(C)(C)N2C(=O)CSc1nnc(-c2ccc(C)cc2)o1	0.2	-32	193	114	i	0.92	2
Cc1cc(C)nc(NC(=NCCc2c[nH]c3ccccc23)NC(=O)c2ccco2)n1	0.5	-42	97	96	i	0.85	1
CCN(CC)C(=O)CSc1nc2sc3c(c2c(=O)n1-c1ccc(C)cc1)CC(C)(C)SC3	-1.1	-31	110	99	i	0.96	1
Cc1ccc(NC(=O)CSc2nnc(Cn3c(=O)sc4ccccc43)n2C)cc1Cl	-1.5	.	.	101	.	.	-6
CSc1nc2c(cnn2-c2ccccc2)c(=O)n1N	.	.	.	101	i	0.97	1
O=C(c1ccccc1)N1CCN2C(=O)c3ccccc3C12c1ccc(Cl)cc1 (configuration not stated)	-1.6	-71	89	105	i	0.85	-6
N#Cc1ccsc1NC(=O)c1ccccn1	-1.8	.	.	98	i	0.71	-1

# Record cards, as listed above.
# N#Cc1ccc(CSc2nnc(-c3cccnc3)n2-c2ccccc2)cc1 as listed: GALR2 ag = -0.9; Insulin prom inh = .; Insulin prom inh cell count = .; RGS16-Gao = 103; HSV augment = i; HSV augment primary fold = 1; PKD1 inh = -1
# O=C(c1ccccc1)N1CCN2C(=O)c3ccccc3C12c1ccc(Cl)cc1 (configuration not stated) as listed: GALR2 ag = -1.6; Insulin prom inh = -71; Insulin prom inh cell count = 89; RGS16-Gao = 105; HSV augment = i; HSV augment primary fold = 0.85; PKD1 inh = -6
# N#Cc1ccsc1NC(=O)c1ccccn1 as listed: GALR2 ag = -1.8; Insulin prom inh = .; Insulin prom inh cell count = .; RGS16-Gao = 98; HSV augment = i; HSV augment primary fold = 0.71; PKD1 inh = -1

# Later entries:
Molecule	GALR2 ag	Insulin prom inh	Insulin prom inh cell count	RGS16-Gao	HSV augment	HSV augment primary fold	PKD1 inh
O=C1C2C3c4ccccc4C(c4ccccc43)[C@@H]2C(=O)N1c1cccnc1 (some centres not stated)	-0.9	.	.	107	i	0.94	1
N#Cc1nc(-c2cccc3ccccc23)oc1N1CCCCC1	-2.4	13	117	114	.	.	-8
O=c1sc2ccccc2c(N2CCCCC2)c1[N+](=O)[O-]	.	.	.	102	i	1	-3
O=[N+]([O-])c1ccc(-c2cn(-c3ccc(Cl)cc3)c(=S)[nH]2)cc1	-0.8	.	.	195	i	0.93	-7
COc1ccc(CCNc2nc(-c3ccncc3)cs2)cc1OC	.	.	.	104	i	1.1	.
Cc1nn(Cc2c(Cl)cccc2Cl)c(C)c1NC(=O)c1cn(-c2ccccc2)nc1-c1ccccc1	-2.1	.	.	101	.	.	-13
COC(=O)N/N=C/c1ccc(-c2ccccc2Cl)o1	.	.	.	103	i	0.86	.
CCOC(=O)CCCNC(=O)c1cncc(Br)c1	-1.3	.	.	91	i	0.77	-19
CCN(CC)C(=O)CN(Cc1ccccc1)S(=O)(=O)c1ccc(F)cc1	-2.6	.	.	69	i	0.99	-9
NC(=O)c1c(NC(=O)c2ccco2)sc2c1CCC2	-2.6	0	107	100	i	0.97	-1
O=C1S/C(=C\c2ccccc2)C(=O)N1CC(O)Cn1c2ccccc2c2ccccc21 (configuration not stated)	0.0	.	.	128	i	0.93	-13
CCCNC(=O)COC(=O)c1ccc(-c2ccccc2)cc1	.	53	134	101	i	1.1	6
CC(CCc1ccccc1)NC(=O)COC(=O)c1cc(NS(=O)(=O)c2ccc(Cl)c([N+](=O)[O-])c2)ccc1O (configuration not stated)	-1.8	-8	80	101	.	.	-1
COc1ccc(CCNC(=O)c2ccc([N+](=O)[O-])cc2)cc1	.	.	.	108	i	1.1	.
O=C1OC(Nc2nccs2)c2ccccc21 (configuration not stated)	-0.6	0	129	.	i	1.1	3
CCOC(=O)CSC1=Nc2ccccc2C2=NC(CC(=O)NCc3cccs3)C(=O)N12 (configuration not stated)	-1.8	60	125	99	i	0.81	1
COc1ccc(NC(=S)N(Cc2ccc(C)cc2)Cc2ccccn2)cc1	.	47	127	97	i	1	9
CCN(CC)C(=S)Nc1cc(C(=O)OC)ccc1C(=O)OC	-0.7	-10	158	109	i	1	-16
CCOC(=O)C1=C(C(F)(F)F)Nc2ncnn2C1c1ccc(OC)cc1OC (configuration not stated)	-0.3	-3	93	106	i	0.96	6
CC(C)(C)N(Cc1ccccc1)C(=O)COC(=O)CCc1c[nH]c2ccccc12	-2.4	.	.	94	i	1.1	1
O=C(COC(=O)Cc1ccccc1F)Nc1ccc(Cl)cn1	.	.	.	98	i	0.93	-1
COc1ccc(C2Nc3ccccc3C(=O)N2NS(C)(=O)=O)cc1OC (configuration not stated)	.	17	80	100	i	1	3
Cc1cc2ccccn2c1C(=O)c1cccc(S(=O)(=O)N2CCOCC2)c1	.	.	.	107	i	0.95	7
CC1CN(c2ccc(Oc3ccccc3)cc2)c2nc3c(c(=O)n(CC(N)=O)c(=O)n3C)n2C1 (configuration not stated)	.	.	.	111	i	0.94	.
Cc1ccc(C2CC(c3ccc(Cl)cc3)n3nc(N)nc3N2)cc1 (configuration not stated)	-1.6	.	.	98	i	0.84	5
CCOc1cccc2cc(C(=O)NCc3cccnc3)c(=O)oc12	-0.1	-25	128	101	i	0.85	0
CCC1Sc2ccccc2N(CC(=O)NC2CCCCC2)C1=O (configuration not stated)	.	-20	103	95	i	0.98	0
CCCCOc1ccc(-c2ncc(C(=O)O)c(C)n2)cc1	-0.7	.	.	102	i	0.99	-8
CC(C)(C)NC(=O)Cn1c(=O)oc2ccc(Cl)cc21	-1.1	.	.	101	i	0.77	5
Cc1cc(C)cc(N2C(=O)CSC2c2ccccn2)c1 (configuration not stated)	.	.	.	106	i	0.96	-8
CCn1ccnc1CNCc1cn(-c2cc(C)ccc2C)nc1-c1ccccc1	.	0	28	109	i	0.91	-4
O=[N+]([O-])c1ccc(C2=Nn3c(Cn4nnc5ccccc54)nnc3SC2)cc1	.	.	.	84	i	1	.
O=[N+]([O-])c1ccc(N=Cc2sc3ccccc3c2O)cc1	0.0	-5	98	109	i	0.96	-12
C/C(=N\Nc1cc(Cl)nc(C)n1)c1ccc(C)cc1	-0.9	-13	79	.	i	0.6	-3
CCN1CCN(c2ncnc3c2cnn3-c2ccc(Cl)cc2)CC1	.	.	.	101	i	0.89	.
Cc1ccc(C(=O)CC(=O)COc2ccc(Cl)cc2)cc1	-0.9	27	84	50	i	0.92	-14
COc1cc(CC(=O)OCC(=O)Nc2ccc(Cl)c(S(=O)(=O)N(C)C)c2)cc(OC)c1OC	.	.	.	103	i	1.1	.
CCCN1C(=O)/C(=C/c2ccccc2OCc2ccc(C(=O)O)cc2)NC1=S	.	.	.	97	i	1.1	-7
O=C1N=C(N2CCCCC2)S/C1=C\c1cn[nH]c1-c1ccccc1	-2.1	23	120	100	i	0.77	3
O=C(Nc1ccsc1C(=O)NC1CCCCC1)c1ccccc1	-0.6	4	100	105	i	0.83	-1
Cc1ccn2cc(CCNS(=O)(=O)c3ccc(F)c(C(F)(F)F)c3)nc2c1	-2.1	.	.	103	i	0.75	0
CC(=O)c1sc(NS(=O)(=O)c2ccc(C)cc2)nc1C	.	6	65	104	i	1.1	-2
CCOc1ccc(N2C(=O)c3ccccc3C2=O)cc1	-3.0	-23	80	114	i	0.91	-8
Cc1ccc(NC(=O)COc2ccc(Br)cn2)cc1	.	.	.	105	i	1.2	.
COc1ccccc1NC(=O)CCN1CCN(Cc2ccccc2)CC1	-1.5	-37	45	102	i	0.84	-6
c1ccc(OCCn2c(-c3ccco3)nc3ccccc32)cc1	-1.7	-77	112	95	i	0.8	-5
CCOC(=O)C(O)(CCC(O)(C(=O)OCC)C(=O)OCC)C(=O)OCC	-2.2	.	.	94	i	0.68	-4
Cn1c(SCC(=O)OCC(=O)c2ccccc2)nnc1-c1cccs1	-1.9	56	71	100	i	1.2	-13
O=C(NC(=S)NCCCN1CCOCC1)c1ccco1	.	29	88	132	.	.	4
COc1ccc(NC(=O)CCSc2nnnn2C)cc1	.	.	.	104	i	0.95	8

# (next part)
Molecule	GALR2 ag	Insulin prom inh	Insulin prom inh cell count	RGS16-Gao	HSV augment	HSV augment primary fold	PKD1 inh
O=C(NC1=NCCS1)c1ccccc1OCc1ccccc1Cl	.	.	.	103	i	1.4	-2
O=C1COc2ccc(C(=O)CSc3nnnn3-c3ccccc3)cc2N1	-2.8	-6	120	67	i	0.95	-2
C=CCN1C(=O)N/C(=C/c2ccc(C)o2)C1=O	-0.5	.	.	98	i	1	-7
Cc1[nH]n(-c2ccccc2)c(=O)c1N=O	.	.	.	108	i	0.94	-1
COCC(=O)n1nc(-c2ccccc2)nc1NCc1ccccc1	.	.	.	97	i	0.96	0
N=C1C(c2ccccc2)=C(O)CN1c1cccc(S(=O)(=O)Nc2cccc(C(F)(F)F)c2)c1	0.5	-20	100	98	i	0.88	1
O=C(Nc1ccc(F)cc1)NC1(C(=O)NCc2cccs2)CCCCC1	-2.8	.	.	126	i	0.94	10
O=C(NC1=NCCS1)c1ccc(-c2ccc(Cl)cc2)o1	1.7	.	.	101	i	0.82	3
COc1ccc(N2CCN(CC(=O)c3c(C)n(C)c4ccc(OC)cc34)CC2)cc1	.	.	.	100	i	0.8	.
Cc1ccc(CNc2ccc(N3C(=O)CC(C)C3=O)cc2[N+](=O)[O-])cc1 (configuration not stated)	0.3	43	136	109	i	0.88	-17
Cc1nn(C)c(C)c1NC(=O)c1ccc(S(=O)(=O)N(C)C)cc1	-2.0	-5	104	100	i	0.98	-9
CCOC(=O)c1nc(Nc2ccc(C(=O)O)cc2)c2ccccc2n1	-1.9	.	.	94	i	0.82	4
N/C(=N\OC(=O)COc1ccc(Br)cc1)c1ccncc1	0.1	13	79	107	i	0.85	0
Cc1ccc(OCc2cnc(Cl)s2)c(C)c1	.	.	.	95	i	0.93	-9
O=C(COc1ccc(Cl)cc1Cl)Nc1ccc(Cl)cn1	0.8	6	108	12	i	0.83	-5
COc1cc(CCC(O)CC(=O)CCc2ccccc2)ccc1O (configuration not stated)	.	.	.	104	i	0.77	10
Cc1nc2ccccc2c(=O)n1/N=C/c1ccccc1	-3.1	21	124	94	i	0.72	-14
C=CCn1c(SCC(=O)c2ccc(Br)cc2)nnc1C(CC(C)C)NC(=O)c1cccs1 (configuration not stated)	0.4	-18	120	98	i	0.74	-2
CCc1ccc2c(c1)c1nc(C)sc1n2CC(=O)OC	-1.6	-4	125	105	i	0.87	1
COc1ccc(Cn2nnnc2C(c2cccs2)N2CCN(c3ccc([N+](=O)[O-])cc3)CC2)cc1 (configuration not stated)	-3.1	50	81	99	i	0.87	0
O=C(O)c1cnc(-c2ccccc2)nc1-c1ccccc1	.	15	99	100	.	.	-2
Cc1ccc(S(=O)(=O)c2c(N)n(CCCO)c3nc4ccccc4nc23)cc1	1.0	-79	93	104	i	0.99	-8
CC1=C(C#N)C(C)C2=C(CC(C)(C)CC2=O)N1 (configuration not stated)	-1.1	.	.	97	i	1	-7
COc1cccc(OC)c1C(=O)N1CCN(Cc2ccccc2C(F)(F)F)CC1	-1.5	22	76	83	i	1.1	-1
Cn1c(=O)[nH]c(=O)c2c1nc(SCCN1CCCCC1)n2Cc1ccccc1	-0.7	25	133	106	i	0.91	4
CCOc1ccc(NC(=O)CCNS(=O)(=O)c2ccc(Br)s2)cc1	-2.8	16	157	105	i	0.92	-4
COC(=O)Cn1cc(C(=O)c2cccs2)c2ccccc21	-2.7	59	99	72	i	0.99	5
COC(=O)c1c[nH]n2c(=O)c(Cc3ccc(F)cc3Cl)c(C)nc12	-0.3	.	.	91	i	1	1
O=C(NCc1ccc2c(c1)OCO2)c1ccc(N2CCCC2=O)cc1	-3.4	11	64	102	i	0.79	-7
Cn1nnnc1SCc1ccc(C(=O)Nc2ccccc2F)cc1	-2.5	-3	133	73	i	0.93	2
O=c1[nH]nc(SCCS(=O)(=O)c2ccc(F)cc2)n1-c1ccccc1C(F)(F)F	.	.	.	102	i	0.83	.

# This is a random part of the collection; about 1.3% have a hit in one of these screens.
